Vaccinia Venus – inhibitors of vaccinia virus (Venus reporter); 330,000 compounds, 0.46% hits; Potency, µM (doses to about 36.5 µM), for inactives: top-dose activity change, negative = inhibition, usual class: inhibitors; Vaccinia virus Venus reporter expression, fluorescence; active means well fitted inhibition curve with a large enough effect; inconclusive means small, poorly fitted or top-dose-only effect; inactive means no such curve, though single readings can be large or run the other way; tested in A549 cells; further: nearly all actives have a fitted effect of over 30% in size; inactives centre near -10
VACV mCherry inh – vaccinia inhibition (mCherry reporter); Vaccinia virus mCherry reporter infection, fluorescence; about a quarter of the inactives have no number; Potency, µM (doses to about 36.5 µM), for the others: at the top dose activity change, negative = inhibition, actives largely listed as inhibitors; 310,000 compounds, 0.63% hits; active = well fitted inhibition curve with a large enough effect; inconclusive = small, poorly fitted or top-dose-only effect; inactive = no such curve, though single readings can be large or run the other way; tested in A549 cells; further: nearly all actives have a fitted effect of over 35% in size; inactives centre near -10
* = called active by the depositor; i = inactive; u = inconclusive; x = no result given; [ ] = remark or other dose. On the % scale 0 is the no-effect control and ±100 the full control effect; potency means the concentration at half of the fitted maximal effect. An unsorted share of the library; about 0.87% have a hit in one of these screens.

compound | Vaccinia Venus | VACV mCherry inh
CCOc1ccc(-c2n[nH]c(=S)o2)cc1 | -1% | -6%
CCOC(=O)/C(CCCN(CC)CC)=N\O | -25% | x
O=c1oc2ccccc2c(NCc2ccccc2)c1[N+](=O)[O-] | -9% | -12%
Nc1oc2ccccc2c(=O)c1-c1ccc2c(c1)OCO2 | -14% | -17%
N#C/C(=C\c1ccccc1)C(=O)NNS(=O)(=O)c1cccc([N+](=O)[O-])c1 | -2% | -13%
CCCc1cnc2c(c1SCC(=O)NCc1ccc(C)cc1)c(=O)n(C)c(=O)n2C | -20% | -18%
O=C(OCc1ccc([N+](=O)[O-])cc1)c1cnc(Cl)c(Cl)c1 | 0% | i
Cc1ccc(CNC(=O)NC2COc3ccccc3C2)cc1 (configuration not stated) | -6% | -12%
COc1ccccc1C(=O)NC1=NC(c2ccc(Br)cc2)CC(=O)N1 (configuration not stated) | -10% | -5%
CC(=O)Nc1ccc(CNc2nc3cc(-c4ccsc4)sc3c(=O)n2C)cc1 | -17% | 6%
COc1ccccc1C(=O)CSc1cccc[n+]1[O-] | -8% | -1%
COC(=O)c1ccc(C2=NOC(C)(c3sc(-c4ccc(Cl)cc4)nc3C)C2)cc1 (configuration not stated) | -1% | -13%
CCN(CC)CCn1c(/N=C/c2ccc(OC)c(OC)c2)nc2ccccc21 | -9%[7.34 µM] | 0%[7.34 µM]
CC(C)(C)c1ccc2c(c1)OC(C(=O)N/N=C/c1ccc([N+](=O)[O-])o1)CO2 (configuration not stated) | 13% | u
O=C1OC(c2ccccc2)c2ccc3ccccc3c21 (configuration not stated) | -3% | i
Cc1[nH]c2c(C)cccc2c(=O)c1Br | -5% | -13%[1.46 µM]
O=C(Cn1c(SCCOc2ccccc2)nc2ccccc21)N1CCOCC1 | -3% | -7%
CC(=O)c1ccc(NC(=O)COc2ccccc2-c2nc(-c3ccc(C)cc3)no2)cc1 | -11% | -6%
COc1ccccc1C(=O)n1nc(-c2ccccc2)nc1NCc1ccc(Cl)cc1 | 11% | -2%
CCOC(=O)COc1ccccc1/C=N/Nc1nnc2c3ccccc3n(C)c2n1 | -3% | -5%
CCOC(=O)c1cccc(NC(=O)CSc2nnnn2CC)c1 | -3% | i
COc1ccc(-c2csc(=Nc3c(C)n(C)n(-c4ccccc4)c3=O)n2C(C)(C)C)cc1 | 2% | -17%
Cc1ccc(S(=O)(=O)NCCC(=O)NC2CCCCCC2)cc1 | -12% | -1%
COc1ccc(-n2c(O)c(Cc3ccccc3)c(=O)n3nc(-c4ccccc4)c(=O)cc23)cc1 | 4% | -1%
CCc1ccc(CNC(=O)C(CC)n2ccc3cc(S(=O)(=O)N4CCCCC4)ccc32)cc1 (configuration not stated) | -24% | -10%
CCc1ccc(-n2nc(CO)c(C(=O)NCc3cccnc3)n2)cc1 | -5% | -3%
O=C(c1cccnc1)N1Cc2ccccc2-n2nncc2C1 | -11% | i
O=C1CSC(c2ccc(Cl)cc2)N1 (configuration not stated) | -6% | -10%
COCCCNC(=O)c1c(-c2ccccc2)c(-c2ccccc2)nn(C)c1=O | -7% | -5%
COC(=O)c1c(NC(=O)C2C3CCC(O3)C2C(=O)O)sc2c1CCCCCC2 (configuration not stated) | -1% | -10%
CCCCn1c(SCC(=O)NC(C)CC)nc2ccc(N3CCOCC3)cc2c1=O (configuration not stated) | -3% | -17%
Cc1ccccc1NC(=S)NC(NC(=O)N(C)C)C(Cl)(Cl)Cl (configuration not stated) | -5% | -4%
COc1ccc(CCNC(=O)C2CCCN(c3nc4c(C)cc(C)cc4s3)C2)cc1OC (configuration not stated) | -21% | -21%
Cc1ccccc1C(=O)N1CCN(c2ccc(NC(=O)c3cccnc3Cl)cc2)CC1 | -14% | -5%
COc1cccc2cc(C(=O)NCc3ccccc3Cl)c(=O)oc12 | -13% | i
O=c1c(OC2OC(CO)C(O)C(O)C2OC2OC(CO)C(O)C(O)C2OC2OC(CO)C(O)C(O)C2O)c(-c2ccc(O)c(O)c2)oc2cc(O)cc(O)c12 (configuration not stated) | -6% | -4%
Cn1c(=S)[nH]c2scc(-c3cccs3)c2c1=O | 2% | -16%
COc1cc(C2CC(=O)N(Cc3ccc(F)cc3)c3ccccc3S2)cc(OC)c1OC (configuration not stated) | -23% | -27%
COC(=O)c1c(OCc2ccccn2)cc(=O)n2c1CCN(C(=O)c1n[nH]c3c1CCCC3)CC2 | -8% | -15%
CCOc1ccc(-c2c(C)n(-c3ccc(OCC)cc3)c3[n+]2CCCCC3)cc1 | -18% | -20%
O=C(CCc1ccccc1)NC1CC(=O)N(c2ccccc2)C1 (configuration not stated) | -9%[7.34 µM] | -5%[7.34 µM]
N#C/C(=C/c1cccn1-c1cccc(C(=O)O)c1)c1ccc(Cl)cc1 | -5% | -11%
CCC(C)N(CCNC(=O)c1ccc2c(c1)NC(=O)c1ccccc1S2)C1CCCCC1 (configuration not stated) | -17% | -14%
COc1ccccc1N1CCN(Cc2nnc(-c3ccccc3C)o2)CC1 | -8% | -18%
CS(=O)(=O)N(CC(=O)N/N=C/c1ccccc1C(=O)O)c1cccc(Cl)c1Cl | -3% | -13%
O=C1c2ccccc2C(=O)N1CN(C(=O)c1ccccc1[N+](=O)[O-])c1ccc(F)cc1 | -18% | -2%
Cc1csc(NC(=O)c2cccc(Cn3nc(C)c(Br)c3C)c2)n1 | -15% | -22%
CN1C(=O)c2ccccc2C(C(=O)O)C1c1cccc(Cl)c1 (configuration not stated) | 8% | i
c1ccc(N=P(N2CCOCC2)(N2CCOCC2)N2CCOCC2)cc1 | -1% | -12%
O=C(CN1C(=O)C2CCCCN2C(=O)c2ccccc21)N1CCCc2ccccc21 (configuration not stated) | 0% | -12%
COc1ccc(NC(=S)N(CCN(C)C)C(C)c2ccco2)cc1 (configuration not stated) | -2% | -10%
CC(=O)OCC1=C(C(=O)OC(C)(C)C)N2C(=O)[C@@H](NC(=O)Cc3ccccc3)[C@H]2SC1 | 6% | -24%
Cc1cccc(NC(=O)c2cc3c(n(-c4ccccc4)c2=O)CCCC3=O)n1 | 5% | x
COCC(C)NC(=O)c1cc2cc(OC)ccc2[nH]1 (configuration not stated) | -11% | -12%
COC(=O)CSc1nnc(CNC(=O)c2cccc(C)c2)n1-c1ccccc1OC | -11% | -11%
CCCCCN(C(=O)CCC(=O)OCC(=O)N1CCCCC1C)c1c(N)n(CCCC)c(=O)[nH]c1=O (configuration not stated) | -13% | -2%
O=C(C[C@H]1C[C@H]2c3cc(NS(=O)(=O)c4ccc(F)cc4)ccc3O[C@H]2[C@H](CO)O1)NCc1cc(F)ccc1F | -24% | i
Cc1cc(C)c(NC(N)=S)c(C)c1 | -19% | -24%
COc1cccc(CNC(=O)N2CCN(S(=O)(=O)c3ccc(C)cc3)CC2)c1 | -21% | 1%
CCOc1ccc(CCNC(=O)COC(=O)COc2ccccc2C)cc1OCC | -13% | i

6 entries from above, reformatted:
Order of values – Vaccinia Venus | VACV mCherry inh
CCC(C)N(CCNC(=O)c1ccc2c(c1)NC(=O)c1ccccc1S2)C1CCCCC1 (configuration not stated)
→ -17% | -14%
COc1ccccc1N1CCN(Cc2nnc(-c3ccccc3C)o2)CC1
→ -8% | -18%
CS(=O)(=O)N(CC(=O)N/N=C/c1ccccc1C(=O)O)c1cccc(Cl)c1Cl
→ -3% | -13%
O=C1c2ccccc2C(=O)N1CN(C(=O)c1ccccc1[N+](=O)[O-])c1ccc(F)cc1
→ -18% | -2%
Cc1csc(NC(=O)c2cccc(Cn3nc(C)c(Br)c3C)c2)n1
→ -15% | -22%
CN1C(=O)c2ccccc2C(C(=O)O)C1c1cccc(Cl)c1 (configuration not stated)
→ 8% | i

New compounds follow
compound | Vaccinia Venus | VACV mCherry inh
C#CCn1cnc2c(cnn2-c2ccc(C)c(C)c2)c1=O | -17% | x
Cc1cc(=O)[nH]c(SCc2ccccc2)n1 | -15% | i
O=c1c2sc3ccccc3c2n(Cc2ccc(F)cc2)c(=O)n1Cc1ccccc1 | -9% | 3%
COc1cc(NC(=S)NCCN2CCOCC2)cc(OC)c1 | -6% | -15%
Cc1cc(N2CCN(c3ccc(F)cc3)CC2)n2nc(-c3ccc(Cl)cc3)nc2n1 | 3% | -4%
COc1ccc(CCNC(=O)c2c(N)n(CCN3CCOCC3)c3nc4ccccc4nc23)cc1OC | u | u
CCOC(=O)c1c(-c2ccc(OC)cc2)oc2ccc(OCC(N)=O)cc12 | -16% | -24%
CC(Sc1nnc(-c2ccco2)n1-c1ccccc1)C(=O)NCC1CCCO1 (configuration not stated) | -13% | -16%
Cn1nnnc1SCC(=O)Nc1ccc(Oc2ccccc2)cc1 | -6% | -9%
Nc1nc(-c2ccc3c(c2)OCCO3)cs1 | 7.1µM* | -18%[1.46 µM]
Cn1nnnc1SCCNCc1ccc(OCc2ccccc2)cc1 | 1% | -7%
Cc1ccc2occ(/C=N/NC(N)=S)c(=O)c2c1 | -5% | i
O=C(CSc1c2c(nc3ccc(Cl)cc13)CCCC2)NCc1ccccc1Cl | -21% | -10%
CC1(C)CC(=O)C=C(c2cccc(OC(=O)c3ccc(-c4ccccc4)cc3)c2)C1=O | -16% | -27%
O=C(Nc1ccc(Oc2ccccc2)cc1)c1ccc2sc([C@H]3C[C@H](O)[C@@H](CO)O3)nc2c1 | u | u
COC(=O)CCN(C(=O)c1ccc(C)c([N+](=O)[O-])c1)c1ccccn1 | -19% | i
CCOC(=O)Cn1c(CN2CCN(C(c3ccccc3)c3ccccc3)CC2)nc2c1c(=O)n(C)c(=O)n2C | -14% | i
COc1ccc(S(=O)(=O)NCCc2sc3nc(-c4ccc(C)cc4)nn3c2C)cc1C | -4%[7.34 µM] | -6%[7.34 µM]
Cc1ccc(CCNC(=O)c2nnc(Cc3cccc(F)c3)o2)cc1 | -12% | -12%
COc1ncccc1C(=O)N1CCOc2ccc(C(O)C(c3ccccc3)c3ccccc3)cc2C1 (configuration not stated) | -14% | -19%

Single records, as listed above. Screens in order: Vaccinia Venus | VACV mCherry inh
`COc1ccc(S(=O)(=O)NCCc2sc3nc(-c4ccc(C)cc4)nn3c2C)cc1C` reads -4%[7.34 µM] | -6%[7.34 µM]
`CC1(C)CC(=O)C=C(c2cccc(OC(=O)c3ccc(-c4ccccc4)cc3)c2)C1=O` reads -16% | -27%

Going on with the list:
compound | Vaccinia Venus | VACV mCherry inh
CCOC(=O)c1c(C)oc2c1c(C(c1cccnc1)N1CCOCC1)c(O)c1ccccc12 (configuration not stated) | -26% | -11%[1.46 µM]
CCOC(=O)Cn1nc(C)c(NC(=O)COc2ccc([N+](=O)[O-])cc2)c1C | -1% | i
CN1CCN(S(=O)(=O)c2cccc(C(=O)Nc3cc(C(F)(F)F)ccc3N3CCCC3)c2)CC1 | -25% | -29%
Cc1ccc2c(CC(=O)NCCc3ccc(S(N)(=O)=O)cc3)coc2c1 | -10% | i
O=C(COC(=O)c1ccco1)Nc1nc2c(F)c(F)c(F)cc2s1 | -15% | -24%
NC(=O)C1CCN(C(=O)c2cc3ccccc3cc2O)CC1 | -6% | i
CSCC[C@H](NC(=O)OC(C)(C)C)C(=O)N1CCC(C(=O)N[C@@H](C)C(=O)NC(C)c2ccccc2)CC1 (some centres not stated) | -2% | -9%
O=C(Nc1nccs1)C12CC3CC(C1)CC(C(=O)Nc1nccs1)(C3)C2 | u | x
CCN(CC)S(=O)(=O)c1cccc(-c2nnc(C(=O)c3ccc(C(F)(F)F)cc3)o2)c1 | -16% | -20%
CCCCOC(=O)c1ccc(NC(=O)C(CCS(C)(=O)=O)NC(C)=O)cc1 (configuration not stated) | -18% | x
Cc1noc(C)c1C(=O)N1CCC1(C)C(=O)NS(=O)(=O)Cc1cccc(Cl)c1 (configuration not stated) | -2% | 25%
CCCCSCCCNC(=O)c1c[nH]c2ccc(S(=O)(=O)Nc3cccc(OC)c3)cc2c1=O | -7% | -8%
O=C(NN1CCOCC1)c1ccccc1 | -21% | 0%
CCCn1c(SC(C)C(=O)NCC2CCCO2)nc2cc(Cl)ccc2c1=O (configuration not stated) | -2% | -9%
COCc1cc(C)nc(N2CCCCC2)c1C#N | -22% | u
NC(=O)CSc1nnc(-c2cccc(S(=O)(=O)N3CCOCC3)c2)o1 | -23% | -9%
COc1ccc(-c2csc(C(C)(O)c3cccnc3)n2)cc1 (configuration not stated) | -7% | i
CCc1nc(SCC(=O)Nc2ccccc2Cl)n[nH]1 | -4% | 7%
CCn1c(CC(=O)Nc2ccc(Cl)c(Cl)c2)nnc1SCc1ccc(Cl)cc1 | -1% | x
Cc1cc(C)cc(NC(=S)NCC2CCN(C(C)c3ccccc3)C2)c1 (configuration not stated) | -2% | -2%
Cc1ccc(C(C)NC(=O)c2ccc3c(c2)OCCO3)cc1C (configuration not stated) | u | -13%
CNc1cncc(-c2ccc(NS(C)(=O)=O)cc2)n1 | -23% | 3%
CCc1ccc(NC(=O)c2cnc3c(-c4ccccc4)c(C)nn3c2C)cc1 | -1% | -3%
COc1ccc(NC(=O)C(c2ccccc2)N(C)C(=O)/C=C\c2ccc3c(c2)OCO3)cc1 (configuration not stated) | -7% | -1%
Cc1ccc2c(c1)C1CN(C)CCC1N2C(=S)Nc1ccc(Cl)cc1Cl (configuration not stated) | -23% | -26%
Cc1ccc(C)c(CN2CCCN(CC(=O)Nc3ccc(C)c(C)c3)S2(=O)=O)c1 | -13% | -15%
COc1ccccc1NC(=O)Cn1cnc2c1c(=O)n(C)c(=O)n2C | -11% | x
COc1ccc(OCC(=O)NCc2nc(-c3ccccc3)no2)cc1 | -5% | i
